Source: PubChem BioAssay (several laboratories)
PrP UTR inh = inhibition of PrP 5' UTR reporter expression; cell-based PrP 5' UTR mRNA reporter, plate reader; hit rate 0.35% among 340,000; inhibition, % (no concentration beside the values);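 active = every replicate at 50% or more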;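 note: 0 = median of the neutral control wells; tested in H4 reporter cells; numbers are from one replicate; inactives centre near -14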
Bead autofluor = flagged as autofluorescent in microsphere protease counterscreen. compound autofluorescence counterscreen, microsphere flow cytometry; stronger effect = higher value. AID 624483. hit rate 3.1% among 360,000. fluorescence intensity (test concentration not listed);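 active = at least 3 SD above the mean of all compounds, about 16000 in these data; inconclusive = too few beads counted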;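 note: 100 nL of 1 mM stock went into each well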
Mtb hypoxia rep = Mtb hypoxia fluorescent reporter inhibition. hit rate 0.1% among 300,000. M. tuberculosis hypoxia-regulated fluorescent reporter, fluorescence. fluorescence inhibition, % (no concentration beside the values). AID 1159583;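 active = 35 to 45% if threefold the growth effect, above 45% if 1.5-fold the growth effect; inactive = the rest, general growth blockers included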;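 note: wells of about 50 µL received 100 nL stock; 0% = vehicle wells and 100% = reference inhibitor wells; whole bacteria with a GFP reporter of the hypoxia response; strong numbers were not always called active; many hits fall short of the cut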
RN4220 kill = kills Staphylococcus aureus RN4220; S. aureus RN4220 growth, OD600, 16 h; inhibition, % (concentration not given with the values); hit rate 0.33% among 330,000; AID 1259311;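 active = z-score of -3 or lower and OD600 up to 0.18 on both plates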;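 note: plate controls were untreated cells for no effect and reference antibiotic for full effect; stock transfer was 100 nL into about 80 µL; one replicate is shown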
ugtP null kill = growth inhibition of S. aureus ugtP deletion strain. AID 1259309. hit rate 0.54% among 330,000. growth inhibition, % (test concentration not listed). S. aureus RN4220 ugtP deletion, OD600 growth, 16 h; some inactives read as strong as hits;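 active = z-score under -3 and OD600 up to 0.15 on both plates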;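 note: plate controls were untreated wells for no effect and antibiotic for full effect; wells of about 80 µL received 100 nL stock; the first replicate is given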
BJeLR viability = BJeLR cell viability loss. BJeLR (HRASV12) viability, CellTiter-Glo ATP luminescence, 48 h; reference of the scale not given here. inhibition, % (test concentration not listed). hit rate 0.17% among 300,000. AID 1554;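 active = replicate mean above 50%; inconclusive = above 50% but judged a plate artefact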;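 note: 50 nL library stock added to about 25 µL; numbers are from one replicate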
Mtb hypoxia rep growth = second read-out of Mtb hypoxia rep, no call of its own (marks repeat the call); growth inhibition, %; measured here: M. tuberculosis growth (absorbance);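 0% = vehicle and 100% = reference antibiotic; read after six days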
Active calls of the source: *; u = inconclusive; x = no result given.

canonical_smiles | PrP UTR inh | Bead autofluor | Mtb hypoxia rep | Mtb hypoxia rep growth | RN4220 kill | ugtP null kill | BJeLR viability
COc1ccc(CN2CCN(Cc3nc4ccccc4s3)CC2CCO)c(C)c1C (stereo not given) | -1 | 2428 | 12 | 4 | 2.2 | 3 | 4
CCC(O)CC(C(=O)NNc1ccccc1)C(=O)NNc1ccccc1 (stereo not given) | -18 | 4425 | 4 | 1 | 0.9 | 4 | -2
CCC1CCc2c(c3ccccc3[nH]c2=O)O1 (stereo not given) | -9 | 2858 | 4 | 5 | -11 | -20 | 1
Cc1ccccc1/[N+]([O-])=C/c1ccncc1 | -14 | 3602 | x | x | 0.0 | 3 | -6
COCCNc1nc(-c2cc(-c3ccccc3)on2)cc(C(C)C)n1 | -2 | 4143 | 18 | 10 | 3.8 | 7 | -2
O=C(c1cccc(S(=O)(=O)N2CCN(c3ccc(F)cc3)CC2)c1)N1CCCCCCC1 | -33 | 5932 | -4 | 7 | -0.4 | -1 | 5
CCOC(=O)N1CCN(C(=O)c2oc3ccc(S(=O)(=O)N4CCCCC4)cc3c2C)CC1 | -19 | 18639* | 3 | 5 | 2.7 | 1 | -2
O=C(CN1C(=O)c2ccccc2S1(=O)=O)Nc1ccccn1 | -24 | 6092 | 4 | 5 | 1.3 | 11 | 4
O=C(c1ccc2c(c1)N(Cc1ccccc1F)C(=O)c1ccccc1S2)N1CCOCC1 | x | x | 12 | 3 | 2.6 | 4 | 0
COc1ccc(NC(C)=O)cc1S(=O)(=O)NC(Cc1ccccc1)C(=O)NC(C)c1ccccn1 (stereo not given) | -13 | 3749 | 11 | -1 | 2.5 | 6 | x
COc1ccc(C2CC(c3cc(Br)ccc3F)n3nnnc3N2)cc1 (stereo not given) | -14 | 2859 | 14 | 10 | -4.0 | -9 | -2
CCNC(=O)CSc1nnc(-c2cccc(S(=O)(=O)N(CC)CC)c2)n1CCc1ccccc1 | 6 | 20492* | 12 | 6 | 7.6 | 5 | -11
O=C(Nc1nsc(-c2ccccc2)n1)c1ccc(F)cc1 | -23 | 3124 | 2 | 4 | 7.8 | 15 | -1
O=C(O)c1cccc(NC(=O)c2ccc(S(=O)(=O)c3ccccc3)cc2)c1 | -19 | 2767 | -2 | 3 | 4.3 | -2 | -5
Cc1ccc(S(=O)(=O)N(C)CC(=O)O/N=C(\N)c2cccc([N+](=O)[O-])c2)cc1 | -13 | 4753 | 3 | 10 | 4.0 | -2 | 12
CC(C)C1N(c2ccccc2)C(N)=C(C#N)C1(C#N)C#N (stereo not given) | -6 | 4700 | x | x | 3.1 | 1 | 6
CN(C)CCn1c2c(c(SCC(=O)Nc3cccc4ccccc34)nc1=O)CCC2 | -21 | 4836 | -9 | -8 | 3.6 | 3 | -1
Cc1ccc(C(=O)Nc2ccccc2N2CCN(C(=O)C(C)C)CC2)cc1C | -29 | 3093 | -3 | 1 | 2.1 | 8 | -20
C#CCN(C)CCCOc1ccc(Cl)cc1Cl | -10 | 4173 | -2 | 5 | 4.9 | 3 | -19
CCCOC(=O)/C=C/c1c(C)[nH]c(=O)[nH]c1=O | 0 | 2795 | 18 | 12 | 4.2 | -1 | -8

(listing goes on)
canonical_smiles | PrP UTR inh | Bead autofluor | Mtb hypoxia rep | Mtb hypoxia rep growth | RN4220 kill | ugtP null kill | BJeLR viability
CC(C(=O)Nc1ccccc1Sc1ccccc1)N(c1ccccc1)S(C)(=O)=O (stereo not given) | -3 | 2180 | x | x | 9.7 | -7 | 2
COc1ccc(C2CC(=O)Oc3c(C(CCN4CCCC(C)C4)c4ccc(N(C)C)cc4)c(OC)cc(OC)c32)cc1 (stereo not given) | -16 | 3723 | x | x | x | x | -5
CCN(C(=O)CSc1nccn1C)c1cccc2ccccc12 | -7 | 3903 | 2 | 5 | 4.8 | 0 | x
C[C@]12c3[nH]c4ccc(Cl)cc4c3CCN1C(=O)[C@@H](CC(=O)NCc1cccc(C(F)(F)F)c1)C[C@@H]2C(=O)N1CCOCC1 | -15 | 3887 | -4 | 1 | 5.8 | -8 | x
Cc1[nH]c2ccccc2c1/C=N/NC(=O)CNC(=O)c1ccco1 | -14 | 4851 | x | x | x | x | -2
Cc1ccc(-c2cnc(NC(=O)CCC(=O)N3CCCCC3)n2C)cc1 | -23 | 4122 | -1 | 1 | 3.6 | 4 | -3
Cc1ccc(OCC(=O)NN=Cc2cccn2C)cc1C | x | x | -6 | -6 | 2.3 | 2 | x
Cc1nn(CC(=O)N2CCN(c3cccc(C(F)(F)F)c3)CC2)c(=O)c2cccn12 | 4 | 5615 | -3 | 6 | -0.2 | -8 | 8
Cc1c(NC(=O)c2n[nH]c(=O)c3ccccc23)c(=O)n(-c2ccccc2)n1C | -18 | 21768* | 1 | 1 | 1.5 | -3 | 7
CN(C(=O)COC(=O)c1cc(S(=O)(=O)N(C)C)ccc1Cl)C1CCS(=O)(=O)C1 (stereo not given) | -18 | x | 0 | -2 | 1.5 | 5 | 1
O=C(Cc1cccs1)N/N=C/c1ccc(OCc2ccccc2)cc1 | -18 | 2283 | x | x | x | x | -1
CN(C)c1nc(NCc2ccccc2)nc(NN=Cc2cccc(Br)c2)n1 | x | x | -6 | -1 | -0.5 | -21 | x
CC(NC(=O)c1cc(F)c(F)cc1Cl)C1CC2CCC1C2 (stereo not given) | -12 | 5444 | 9 | -4 | 11 | 0 | 9
O=C(CO)N/N=C/c1ccccc1F | -25 | 7826 | x | x | x | x | 13
COc1cc(CO)ccc1OCC(=O)Nc1cccc2ccccc12 | 5 | 6954 | 4 | 9 | 3.7 | 1 | 7
O=C(c1ccc2ccccc2n1)N1CCN(c2ccccc2O)CC1 | -18 | 2145 | x | x | 1.7 | -10 | 8
O=C(c1ccco1)N1CCN(c2c(-c3ccccc3)c3cc(Cl)ccc3[nH]c2=O)CC1 | -9 | 10093 | 2 | 4 | -2.7 | -23 | 6
CC(C)CC(=O)NC(=S)Nc1ccc(CN2CCOCC2)cc1 | -18 | 3798 | 15 | 21 | 2.5 | 49 | 8
CCCCOC(=O)c1ccc(NC(=O)COC(=O)C2CSC3(C)CCC(=O)N23)cc1 (stereo not given) | -29 | u | 2 | 18 | 2.3 | 4 | 8
C/C(=N\Nc1ccccc1)c1c(O)n(C)c(=O)n(C)c1=O | -8 | 2463 | 7 | 4 | 3.0 | 2 | -2

Further records follow:
Compound	PrP UTR inh	Bead autofluor	Mtb hypoxia rep	Mtb hypoxia rep growth	RN4220 kill	ugtP null kill	BJeLR viability
COc1ccc(N2CCN(C(=O)COC(=O)c3oc4ccc(OC)cc4c3C)CC2)cc1	-26	5790	-1	-16	-0.4	-1	-6
CSc1cccc(NC(=O)Cn2cccc2)c1	-32	11051	5	4	2.6	0	14
COC(=O)[C@]1(C)NC(c2ccc(-c3cccc(Cl)c3)c(OC)c2)C2C(=O)N(C)C(=O)C21 (stereo not given in full)	x	x	-2	6	4.1	-1	x
CCCCNC(=O)NC(C(N)=O)P(=O)(OCC)OCC (stereo not given)	-4	4424	-12	0	4.3	3	0
Cc1sc2ncn(CC(=O)NCc3ccco3)c(=O)c2c1-c1ccccc1	-17	2597	0	2	5.9	-6	-7
COCCOC(=O)C1=C(C)OC(N)=C(C#N)C1c1ccco1 (stereo not given)	-11	3863	x	x	-0.2	5	-1
NC(=O)c1coc(-c2ccccc2)n1	-3	4166	16	11	8.4	-1	1
COc1cccc(N(CC(=O)NC2CCCCCC2)S(=O)(=O)c2ccccc2)c1	-13	6327	8	-1	3.3	1	-3
COc1ccc(NC(C)=O)cc1CNC(=O)COc1c(C)c(C)cc(C)c1C	-6	2065	10	4	6.1	-3	-4
O=Cc1ccccc1OCc1nnsc1Cl	-25	4445	4	4	11	-2	-5

Next records follow:
Compound	PrP UTR inh	Bead autofluor	Mtb hypoxia rep	Mtb hypoxia rep growth	RN4220 kill	ugtP null kill	BJeLR viability
Fc1ccc(Oc2cc(N3CCOCC3)nc(-c3ccccc3)n2)c(F)c1	-5	2087	x	x	-6.3	60	-2
Cc1cc(C)cc(OCC(=O)Nc2nc(-c3ccccn3)cs2)c1	-19	x	-5	-1	4.0	1	x
CCNC(=S)N(Cc1ccc(OC)cc1)C1CC(=O)N(c2ccc(OCC)cc2)C1=O (stereo not given)	-12	2700	x	x	6.7	-3	-5
O=C(NCCc1ccccc1)c1coc(=O)c(Br)c1	-10	3123	6	-1	1.5	2	14
CCCCOC(=O)Nc1ccc(C(C)C)cc1	-67	2399	x	x	8.5	25	-22
CC(NC(=O)c1cc2c(=O)n(C)c3ccccc3c2n1C)c1ccc2c(c1)OCCO2 (stereo not given)	-19	5854	x	x	2.6	8	-14
CCCn1nnc(NC(=O)c2ccc3ccccc3c2)n1	-13	3573	2	2	1.2	7	0
CCOC(=O)c1cnc2c(N=Nc3ccccc3)c(N)nn2c1N	-104	7897	16	5	0.4	-18	0
COc1ccc(CNC(=O)COC(=O)C2(C)CC2(Cl)Cl)cc1 (stereo not given)	-15	2868	-4	-2	6.5	14	x
Cc1cccc(NC(=O)CCN2CCC(C)CC2)c1	-57	4715	11	0	5.1	-1	-4

In the list so far, these contain a furan ring, fused or not:
Compound	PrP UTR inh	Bead autofluor	Mtb hypoxia rep	Mtb hypoxia rep growth	RN4220 kill	ugtP null kill	BJeLR viability
CCOC(=O)N1CCN(C(=O)c2oc3ccc(S(=O)(=O)N4CCCCC4)cc3c2C)CC1	-19	18639*	3	5	2.7	1	-2
Cc1[nH]c2ccccc2c1/C=N/NC(=O)CNC(=O)c1ccco1	-14	4851	x	x	x	x	-2
O=C(c1ccco1)N1CCN(c2c(-c3ccccc3)c3cc(Cl)ccc3[nH]c2=O)CC1	-9	10093	2	4	-2.7	-23	6
COc1ccc(N2CCN(C(=O)COC(=O)c3oc4ccc(OC)cc4c3C)CC2)cc1	-26	5790	-1	-16	-0.4	-1	-6
Cc1sc2ncn(CC(=O)NCc3ccco3)c(=O)c2c1-c1ccccc1	-17	2597	0	2	5.9	-6	-7
COCCOC(=O)C1=C(C)OC(N)=C(C#N)C1c1ccco1 (stereo not given)	-11	3863	x	x	-0.2	5	-1

(next part)
Compound	PrP UTR inh	Bead autofluor	Mtb hypoxia rep	Mtb hypoxia rep growth	RN4220 kill	ugtP null kill	BJeLR viability
O=C1NC(c2ccccc2)=C(c2ccc3ccccc3n2)C(c2ccccc2)N1 (stereo not given)	-14	2509	-5	4	6.4	-4	-5
O=C(Oc1nsnc1N1CCCCC1)N1CCOCC1	-26	2953	23	26	-3.3	7	4
Cc1noc(C)c1CSc1nc2ccccc2n1C	-50	2770	-1	-3	-4.4	-5	-8
CCCCNC(=O)c1cc2cccc([N+](=O)[O-])c2[nH]1	-26	5348	x	x	3.6	-10	-7
COc1cc(/C=C/C(=O)Nc2ccncc2)cc(OC)c1OC	8	2469	6	8	0.0	10	-2
Cc1cc(C)n(C(=O)CSc2ccc(Cl)cc2)n1	-26	9189	11	10	8.3	-10	0
Cc1cccc(Nc2nc(N)nc(CN3CCN(Cc4ccc5c(c4)OCO5)CC3)n2)c1	-34	16114	8	-2	1.5	-3	7
Cc1ccc(CNC(=O)C2CCC(=O)N2CCc2ccccc2)cc1 (stereo not given)	-9	20485*	0	3	1.9	2	6
